From PubChem BioAssay
RanGTP-Imp inh = disruptors of Ran-importin-beta complex formation – biochemical, FRET, CFP-Ran, YFP-importin-beta, homogeneous, primary screen; 300,000 compounds, 1.1% hits; inhibition, % (concentration not given with the values); cell-free CFP-Ran/YFP-importin-beta FRET ratio;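 active = most replicates above 15%; inconclusive = exactly half above 15%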;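 also: 0% = DMSO wells and 100% = Ran loaded with GDP instead of GTP; wells of about 40 µL received 100 nL stock; the first replicate is given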
Vif TR-FRET = inhibitors of Vif binding to APOBEC3G peptide, primary screen, biochemical, TR-FRET, GST-Vif 1-94, biotin-A3G peptide, dose response retest (AID 1117319) | TR-FRET GST-Vif / biotin-A3G peptide binding; higher % means a stronger effect; test concentration not given here; strong numbers were not always called active | inhibition, %, or IC50 in µM where a hit was titrated | 260,000 compounds, 0.57% hits;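 active = above the screen mean plus three standard deviations and confirmed in dose response; inconclusive = results disagree or hit not tested in dose response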;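 also: Vif residues 1-94 fused to GST binding biotinylated APOBEC3G peptide 110-148; 0% = full assay without inhibitor and 100% = GST in place of GST-Vif; retest series ran down from 100 µM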
HNF4A DNA FP = change in binding of human HNF4 alpha to DNA. 360,000 compounds, 0.3% hits. HNF4a-FITC DNA binding, fluorescence polarization, 1 h. AID 1224865. activity change, % at 10 µM; in the data active = activity change above about 30%, passing the limit was not always enough;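 also: controls were the assay level and a saturating level of protein; the project sought stronger binding though the title names inhibitors; some compounds called inactive have numbers as strong as hits; positive values seem to mean higher polarization but the record does not say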
ALR inh = human ALR oxidase inhibition via reduced H2O2. P55789. purified ALR, DTT oxidation, H2O2 HRP-luminol luminescence. inhibition, % (concentration not given with the values). 290,000 compounds, 3.8% hits. AID 485317;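 active = mean and each replicate at 75% or more; inconclusive = only one of the two met; inactive = neither met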;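 also: stock transfer was 7.5 nL into about 7.5 µL; 0% = neutral wells and 100% = wells with inactivated enzyme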
LANA-H2A inh = blocks KSHV LANA binding to histone H2A/H2B; cell-free LANA-H2A/H2B peptide, fluorescence polarization; inhibition, % (test concentration not listed); 320,000 compounds, 0.6% hits; AID 2629; in the data active = inhibition mostly above about 10%, no sharp cut-off; inactive = mostly below about 6.7%;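 also: stock transfer was 7.5 nL into about 10 µL; 0% = median of vehicle wells and 100% = median of positive control wells; one replicate is shown; the record names a cut of 25% in any replicate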
Target sequence (Q9QR71 whole entry, looked up): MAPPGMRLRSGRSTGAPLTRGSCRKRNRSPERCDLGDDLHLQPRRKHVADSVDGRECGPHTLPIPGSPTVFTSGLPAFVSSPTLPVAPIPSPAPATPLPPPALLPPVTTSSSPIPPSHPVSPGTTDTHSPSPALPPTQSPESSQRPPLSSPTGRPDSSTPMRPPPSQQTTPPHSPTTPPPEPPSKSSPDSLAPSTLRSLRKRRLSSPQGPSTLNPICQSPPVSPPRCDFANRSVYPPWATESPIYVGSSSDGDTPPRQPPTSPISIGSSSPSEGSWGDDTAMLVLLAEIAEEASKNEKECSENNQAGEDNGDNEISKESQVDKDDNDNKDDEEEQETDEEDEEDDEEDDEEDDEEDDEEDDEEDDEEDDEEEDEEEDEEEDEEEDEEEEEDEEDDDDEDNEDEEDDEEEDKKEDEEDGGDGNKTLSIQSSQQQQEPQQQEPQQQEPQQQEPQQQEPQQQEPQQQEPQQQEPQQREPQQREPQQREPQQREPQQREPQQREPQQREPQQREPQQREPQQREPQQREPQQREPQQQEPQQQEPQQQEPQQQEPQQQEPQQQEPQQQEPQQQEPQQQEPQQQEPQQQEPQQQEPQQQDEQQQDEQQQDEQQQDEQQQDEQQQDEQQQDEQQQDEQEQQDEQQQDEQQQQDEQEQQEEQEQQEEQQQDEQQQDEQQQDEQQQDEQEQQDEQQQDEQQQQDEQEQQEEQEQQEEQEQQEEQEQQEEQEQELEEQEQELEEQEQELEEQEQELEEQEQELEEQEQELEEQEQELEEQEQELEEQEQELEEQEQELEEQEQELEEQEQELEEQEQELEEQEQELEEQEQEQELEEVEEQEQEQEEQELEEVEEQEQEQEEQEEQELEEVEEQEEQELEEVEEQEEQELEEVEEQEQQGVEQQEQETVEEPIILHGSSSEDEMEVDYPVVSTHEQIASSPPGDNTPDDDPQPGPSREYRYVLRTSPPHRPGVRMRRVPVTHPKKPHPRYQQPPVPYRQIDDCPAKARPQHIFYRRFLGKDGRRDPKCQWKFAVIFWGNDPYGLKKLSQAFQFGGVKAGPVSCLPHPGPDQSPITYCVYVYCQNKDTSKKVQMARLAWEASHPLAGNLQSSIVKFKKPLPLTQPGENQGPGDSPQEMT
Calb FLC = C. albicans growth modulation with fluconazole | growth inhibition, % (concentration not given with the values) | C. albicans CaCi-2 (fluconazole-resistant clinical isolate) + fluconazole, Alamar Blue growth, 48 h | 300,000 compounds, 0.57% hits;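 active = most replicates above 75%; inconclusive = exactly half above 75%; inactive = most below 75%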;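 also: all wells also contain fluconazole at 8 µg/ml as a sub-toxic cotreatment; 0% = median of DMSO wells and 100% = median of geldanamycin control wells; wells of about 8 µL received 7.5 nL stock; the first replicate is given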
B2AR ag = agonists of human beta-2 adrenergic receptor inducing internalization | AID 504454 | response, % (concentration not given with the values) | 340,000 compounds, 0.43% hits | Am2.2-beta2AR cells, FAP receptor internalization, flow cytometry; reference of the scale not given here;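 active = response above a set limit, near 3 SD of response in nonfluorescent compounds, cut at about 42% in these data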;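 also: stock transfer was 100 nL into about 11 µL; a reference agonist was the positive control; negative values mostly stem from fluorescent compounds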
Active calls of the source: *; ? = inconclusive; nt = no result given; & = joins results of further samples. Only part of the results is shown; count on the stated rates, not on these rows.

| structure | RanGTP-Imp inh | Vif TR-FRET | HNF4A DNA FP | ALR inh | LANA-H2A inh | Calb FLC | B2AR ag |
| --- | --- | --- | --- | --- | --- | --- | --- |
| C=CCN1C(=O)C2(C(C(=O)OCC)=C(N)Oc3ccccc32)C2=C1CCCC2=O (configuration not stated) | 1.6 | -2% | -2.8 | -1 | 5.0 | 4 | -1 |
| Cc1ccc(-n2c(-c3cccs3)nc3ccccc3c2=O)cc1 | -3.7 | 1% | 1.7 | 1 | -1.3 | 4 | -8 |
| Cn1c(O)c(C=NC2CC(C)(C)NC(C)(C)C2)c(=O)n(C)c1=O | -3.7 | -5% | 1.8 | -2 | -3.3 | -3 | 9 |
| Cc1ccc(CNCCc2ccccc2F)cc1 | 0.9 | -12% | -1.4 | -4 | -4.6 | -2 | -11 |
| Brc1cc2c(cc1CN1CCN(c3ccccc3)CC1)OCCO2 | 1.4 | nt | -0.9 | 30 | -2.6 | 6 | 1 |
| COc1cc2[nH]c(C(=O)N3CCC4(CC3)OCCO4)cc2c(OC)c1OC | 5.1 | nt | -2.8 | -2 | 6.3 | -5 | 10 |
| Cc1cc(-c2ccccc2)cc(-c2ccccc2)[n+]1CCc1ccccc1 | -2.4 | nt | -3.8 | -19 | 1.4 | 97* | -5 |
| CCCCCn1c(=O)c(C(=O)NCc2ccc(Cl)cc2)c(O)c2ccccc21 | -1.5 | nt | -2.0 | nt | 2.4 | 1 | -8 |
| CC(=O)N1N=C(c2cccnc2)CC1c1ccccc1O (configuration not stated) | 2.3 | 24% | 3.6 | 4 | -5.7 | -10 | 7 |
| CN(C)C(=O)Oc1ccc(Br)c2ccccc12 | -0.2 | -16% | 0.2 | -6 | 1.7 | -3 | 4 |
| COc1cc(/C=C/[N+](=O)[O-])ccc1O | 2.8 | 32% | 0.1 | 43 | 7.3 | 3 | 26 |
| COc1nc(NCC2CCCO2)nc(N2CC3CC(C2)c2cccc(=O)n2C3)n1 (configuration not stated) | -2.4 | -4% | -1.1 | 5 | 2.4 | -6 | 0 |
| CCOC(=O)c1ccc(NC(=O)N2C[C@@H]3C[C@@H](C2)c2cccc(=O)n2C3)cc1 | 2.5 | nt | 1.8 | -5 | 0.3 | -2 | 9 |
| Cc1ccc(C)c(Cn2c(C(=O)O)c(C=O)c3ccccc32)c1 | -40 | nt | 164 | 0 | -14 | 5 | 2 |
| O=C1NC(=O)C(CCc2ccncc2)(CCc2ccncc2)C(=O)N1CCc1ccc(F)cc1 | 1.2 | -2% | 0.2 | -23 | -2.1 | 6 | 0 |
| CC(=O)Nc1ccc(C=C2C(=O)NC(=O)NC2=O)cc1 | nt | -5% | -4.7 | nt | nt | nt | -1 |
| CC(=O)OC1CC2(O)C3CCC4CC(O)CCC4(C)C3CCC2(C)C1C1=CC(=O)OC1 (configuration not stated) | nt | -8% | -5.4 | nt | nt | nt | -13 |
| O=C1NC(=O)C(=C/C=C/c2coc3ccc(Br)cc3c2=O)C(=O)N1 | 1.9 | 20% | nt | nt | -7.6 | 0 | nt |
| N#CC1=C(N)Oc2c(c(=O)oc3ccccc23)C1c1cccnc1 (configuration not stated) | 3.6 | -1% | 3.0 | 23 | 4.2 | 0 | -6 |
| O=C(N/N=C1/CN2CCC1CC2)c1cc2ccccc2cc1O | ? | 24% | -2.1 | 51 | -0.9 | 32 | -3 |
| COC(=O)C1=C(c2ccc(-c3ccccc3)c(F)c2)C[C@@H]2CC[C@H]1N2C(=O)NCCNC(C)=O | nt | nt | -0.4 | 0 | 0.9 | nt | -5 |
| CC1=C2[C@H]3OC(=O)[C@@H](C)[C@@H]3CC[C@@]2(C)C=CC1=O | nt | nt | -1.5 | -6 | 1.0 | nt | 4 |
| Cc1[nH]c2ccccc2c1CCN | -6.8 | 2% | -1.1 | 16 | -4.6 | 1 | 1 |
| O=C(OCC(=O)c1ccc([N+](=O)[O-])cc1)/C(=C/c1ccc(Cl)cc1)NC(=O)c1ccccc1 | -1.0 | nt | -1.6 | -7 | 0.4 | 35 | -2 |
| CN1C(=O)C(C2CCCCC2)C(=O)N(C)C1=O | nt | 22% | -3.0 | nt | nt | nt | -5 |
| C1CNC2NCCNC2N1 (configuration not stated) | 2.6 | -5% | -2.0 | nt | nt | -14 | -7 |
| COc1ccc(OC)c(-n2c(O)c(/C=C3\C(C)=Nc4ccccc43)c(=O)[nH]c2=O)c1 | -1.0 | 5% | 13 | 13 | 1.0 | -5 | 10 |
| Cc1cccc(N2C(=O)NC(=O)/C(=C\c3cnn(-c4ccccc4)c3)C2=O)c1 | -1.4 | 1% | 5.0 | 44 | -1.9 | -7 | 9 |
| CC(=NCc1cccnc1)c1c(O)n(C2CCCCC2)c(=O)[nH]c1=O | -1.1 | -9% | -1.0 | 8 | -2.1 | -8 | -12 |
| C#CC1(O)CCC2C3CCC4=C/C(=N/OCC(=O)NCC(=O)NC(C(=O)O)C(C)C)CC[C@]4(C)C3CC[C@@]21C (some centres not stated) | 5.0 | 11% | -2.5 | -26 | 4.0 | -3 | -1 |
| CCCCCCn1c(=O)c(C(=O)Nc2c(C)n(C)n(-c3ccccc3)c2=O)c(O)c2ccccc21 | 0.2 | -3% | -1.6 | -2 | -2.2 | 21 | 9 |
| CCOP(=O)(Cc1cc(C(C)=O)c(C)o1)OCC | 5.8 | 14% | -4.5 | 1 | -1.1 | 0 | 0 |
| CCn1c(=O)cc(OCC(=O)N2CCC3(CC2)OCCO3)c2ccccc21 | 1.4 | -7% | 5.9 | -3 | -0.9 | 31 | 6 |
| C=CCn1c(O)c(C(CC)=Nc2ccc(N(CC)CC)cc2)c(=O)[nH]c1=O | -4.0 | ? | 0.5 | 57 | -2.5 | 0 | 0 |
| O=C(CCC(=O)N1C[C@H]2C[C@@H](C1)c1cccc(=O)n1C2)NCc1ccccc1C(F)(F)F | nt | nt | 1.1 | -4 | -5.0 | nt | 5 |
| O=C(CNS(=O)(=O)c1cccs1)N1CCC2(CC1)OCCO2 | 1.3 | 0% | -1.0 | -4 | 5.0 | -8 | 9 |

Complete entries, quoted from the list. Screens in order: RanGTP-Imp inh | Vif TR-FRET | HNF4A DNA FP | ALR inh | LANA-H2A inh | Calb FLC | B2AR ag
`COc1nc(NCC2CCCO2)nc(N2CC3CC(C2)c2cccc(=O)n2C3)n1` (configuration not stated) across the screens: -2.4 | -4% | -1.1 | 5 | 2.4 | -6 | 0
`COc1cc(/C=C/[N+](=O)[O-])ccc1O` across the screens: 2.8 | 32% | 0.1 | 43 | 7.3 | 3 | 26

Next section.
| structure | RanGTP-Imp inh | Vif TR-FRET | HNF4A DNA FP | ALR inh | LANA-H2A inh | Calb FLC | B2AR ag |
| --- | --- | --- | --- | --- | --- | --- | --- |
| O=C(C[N+]12CCC(CC1)C(O)C2)c1ccc(Br)cc1 (configuration not stated) | 4.0 | 4% | -3.8 | -14 | 2.4 | 2 | -4 |
| COC(=O)C1=C(c2cccc(OC)c2OC)C[C@@H]2CC[C@H]1N2C(=O)N1CCC(O)CC1 | -0.2 | nt | -1.8 | -6 | -3.3 | -3 | -5 |
| CN1CCCN(C(=O)COc2ccc(F)cc2F)CC1 | 0.2 | 6% | 0.4 | -2 | -3.1 | 5 | -2 |
| CCC(=NCc1ccc2c(c1)OCO2)c1c(O)n(C2CCCCC2)c(=O)[nH]c1=O | 3.1 | -2% | 2.5 | -3 | -5.6 | -1 | 3 |
| COC(=O)C1=C(c2ccc(OC)c(OC)c2)C[C@@H]2CC[C@H]1N2C(=O)NC1CCCCC1 | nt | nt | 0.3 | 6 | 4.9 | nt | -12 |
| COC(=O)C1=C(c2cc3ccccc3s2)C[C@@H]2CC[C@H]1N2C(=O)NC(C)C | -0.1 | nt | -5.3 | 17 | -3.0 | 10 | -4 |
| O=C(O)C1CC2(Cl)C(Cl)=C(Cl)C1(Cl)C2(Cl)Cl (configuration not stated) | nt | 0% | 4.5 | nt | nt | nt | 7 |
| O=C1C2(Cl)C3(Cl)C4(Cl)C(Cl)(Cl)C5(Cl)C3(Cl)C1(Cl)C5(Cl)C24Cl (configuration not stated) | nt | nt | -0.5 | 18 | 0.5 | nt | 13 |
| CC(=O)OC1(c2ccccc2)CCN(C)C2CCCCC21 (configuration not stated) | -4.0 | 9% | -2.1 | -25 | -4.1 | 5 | 4 |
| O=C(C1CCC(=O)N1Cc1ccccc1Cl)N1CCC2(CC1)OCCO2 (configuration not stated) | 2.1 | -4% | -0.5 | -2 | 0.4 | 31 | 12 |
| CCN1C(=O)c2ccccc2Sc2ccc(C(=O)N3CCC4(CC3)OCCO4)cc21 | -1.8 | 5% | 1.1 | -1 | 2.9 | 0 | -8 |
| COCCCN1CCN(c2nnc3n2-c2sc(Br)cc2C(c2ccccc2Cl)=NC3)CC1 | -2.1 | 8% | 2.4 | -2 | 1.4 | 1 | -18 |
| COC(=O)C(O)(c1ccc(NC(=O)Oc2ccccc2)cc1)C(F)(F)F (configuration not stated) | 1.7 | 0% | -0.5 | -3 | 1.0 | -1 | 4 |
| Cc1[nH]c2ccccc2c1CCNCc1ccco1 | -1.7 | 2% | 0.1 | 37 | -1.4 | -12 | 7 |
| Cc1ccsc1C(=O)C1CCCN(Cc2cnn(C)c2)C1 (configuration not stated) | 0.4 | 19% | -1.3 | -17 | -5.2 | -11 | 0 |
| Cc1cc(C)c(C)c(C(O)(C(=O)O)c2ccccc2)c1C (configuration not stated) | nt | -8% | -3.3 | nt | nt | nt | 3 |
| O=C(O)C(Br)CBr (configuration not stated) | nt | nt | -0.7 | -9 | -21 | nt | -7 |
| Fc1ccccc1CCNCc1ccccc1 | -0.8 | ? | -2.1 | 2 | 2.1 | -14 | -4 |
| CN1CC(C(=O)c2ccc(F)cc2)C(c2c(F)cccc2Cl)C1 (configuration not stated) | -1.4 | nt | -3.1 | nt | 0.5 | -28 | -2 |
| COc1ccc(OC)c(N2C(=O)CC(=O)NC2=O)c1 | 0.3 | nt | -1.0 | 0 | 0.9 | 9 | 10 |
| COC(=O)C1C(C(=O)O)C2(Cl)C(Cl)=C(Cl)C1(Cl)C2(Cl)Cl (configuration not stated) | nt | -5% | 3.8 | nt | nt | nt | -2 |
| O=C(NC(c1ccc(Cl)cc1)P(=O)(Oc1ccccc1)Oc1ccccc1)OCc1ccccc1 (configuration not stated) | 3.1 | -10% | 2.9 | -3 | -3.9 | 12 | 6 |
| CC(=O)NN1C(=O)c2ccccc2NC1c1cccnc1 (configuration not stated) | -0.6 | -2% | -3.5 | -32 | -6.1 | 2 | -3 |
| O=C1CN=C(c2cccc(Br)c2)c2cc(Br)ccc2N1 | -0.8 | nt | 3.3 | -15 | 0.4 | 4 | 0 |
| O=C1/C(=C/c2ccc([N+](=O)[O-])cc2)N2CCC1CC2 | -7.1 | 6% | 11 | -8 | 1.2 | -18 | 6 |
| CCOP(=O)(OCC)C(NC(=O)c1ccccc1Cl)=C(Cl)Cl | -0.2 | 6% | 3.4 | -8 | 1.7 | 0 | 3 |
| Cc1nn(Cc2ccccc2Cl)c(Cl)c1C(=O)OCC(=O)NCc1ccco1 | 3.0 | -2%&1% | -1.6 | -4 | -6.2 | -19 | -4 |
| O=[N+]([O-])c1ccc(NCCCN2CCOCC2)nc1 | 2.7 | -2% | -5.9 | -3 | 3.2 | 23 | -2 |
| CN(C)Cc1ccccc1OC(=O)N(C)C | 3.2 | -1% | -5.1 | 1 | -1.4 | -19 | -6 |
